Compound activity deposited in PubChem BioAssay by PCMD.
Calb biofilm kill: mixture kills Candida albicans biofilm cells. C. albicans biofilm persisters + clotrimazole, fluorescence viability; primary screen in compound mixtures of four per well. AID 1242. inhibition, % at 7.6 µM. hit rate 0.02% among 120,000;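 active means inhibition above 30.3% in the primary screen of four-compound pools, then above 30% when the compound was retested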;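 further: compounds exposed to preformed 24 h biofilms for 48 h; the number belongs to the whole pool; some results filed as inactive read as strong as hits; inactives centre near 12; 0% = biofilm with clotrimazole alone and 100% = kill control; retested singly at about 60 µM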
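Test system: C. albicans CAF4-2 wild-type biofilms; buffer or medium: RPMI/MOPS medium, pH 7.0; schedule: 24 h biofilm formation, then 48 h compound exposure, 37 °C; detection: Alamar Blue fluorescence; measure: percent inhibition of biofilm viability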
Starred values were filed as active, the others as inactive.

SMILES | Calb biofilm kill
CC(=O)c1cc(C#N)c(NCc2cc(-c3ccccc3)no2)nc1C | 8.7
COc1ccccc1NC(=O)/C=C1\NC(=O)CS1 | 12.3
Cc1cc(/C=N/NC(=O)c2ccccn2)c(C)n1-c1cccc([N+](=O)[O-])c1 | 9.3
Cc1ccc(CC(=O)Nc2ccccc2-c2ccccc2)cc1C | 4.9
O=C(NCc1ccco1)C(=O)NCC(c1ccco1)N1CCOCC1 (configuration not stated) | 8.6
N/C(=N/OC(=O)c1ccccc1Cl)c1ncc([N+](=O)[O-])s1 | 14.3
CC(/C=C/c1ccc2c(c1)OCO2)=N/NC(=O)c1cccnc1 | 12.8
Cc1cc(OCC(=O)NC(C)C)cc(C)c1Cl | 2.0
CC(C)CCNC(=O)C1CC(c2cccc(F)c2)=NO1 (configuration not stated) | 16.0
Cc1cc(Br)ccc1SCC(=O)OCC(=O)NC1CCCC1 | 19.1
COc1cccc(C=N[C@@H](CO)[C@@H](O)c2ccc([N+](=O)[O-])cc2)c1O | 25.8
CCCCC(=O)Nc1cccc(-c2csc(-c3ccccc3)n2)c1 | 12.9
COc1ccc(OCC(=O)NCCc2c[nH]c3ccccc23)cc1 | -7.4
CCCNC(=O)c1ccccc1NC(=O)c1ccccc1SC | 12.7
COc1cc(CN2CC(=O)N(c3ccc(C)cc3)C2=S)cc(OC)c1OC | 19.4
CN(C)CCCC(C)(O)C(C)(C)c1ccccc1 (configuration not stated) | 7.3
CSc1ccccc1NC(=S)NC1CCCCC1 | 9.4
O=C(CN1CCN(Cc2ccccc2)CC1)NCCNc1ccc([N+](=O)[O-])cn1 | 18.2
CCOc1ccc2oc(C(=O)NCC(C)(C)CN(C)C)c(C)c2c1 | 11.7
O=C(CN1C(=O)c2ccccc2S1(=O)=O)NCc1ccco1 | 22.9
COc1ccc(Cn2c(-c3ccc(C)cc3)nc3c(c(=O)c4ccccc4n3C)c2=O)cc1 | 12.3
COC(=O)c1ccc(NCC(=O)N2CCCCCC2)cc1 | 15.8
Cc1nn(CC(=O)NCc2cc3ccccc3[nH]2)c(C)c1[N+](=O)[O-] | 8.8
COc1ccc(OC)c(Nc2nc3ccccc3n3cnnc23)c1 | 29.3

No new results follow: two of the compounds above.
SMILES | Calb biofilm kill
CC(=O)c1cc(C#N)c(NCc2cc(-c3ccccc3)no2)nc1C | 8.7
COc1ccccc1NC(=O)/C=C1\NC(=O)CS1 | 12.3

3 entries from above, sorted by molecular weight, largest number first.
SMILES | Calb biofilm kill
COc1ccc(Cn2c(-c3ccc(C)cc3)nc3c(c(=O)c4ccccc4n3C)c2=O)cc1 | 12.3
Cc1nn(CC(=O)NCc2cc3ccccc3[nH]2)c(C)c1[N+](=O)[O-] | 8.8
CSc1ccccc1NC(=S)NC1CCCCC1 | 9.4

The listing continues:
SMILES | Calb biofilm kill
CC(C)N(Cc1nc(-c2ccc3c(c2)OCO3)no1)CC1CCC(=O)N1 (configuration not stated) | 29.8
CCc1cccc(CC)c1NC(=S)NCC(c1cccnc1)N(C)C (configuration not stated) | 15.1
COc1ccc(Cl)cc1NC(=S)N1CCC(c2ccc(C)cc2)C1 (configuration not stated) | 14.9
Nc1n[nH]c2cc(=O)n(-c3cccc(C(F)(F)F)c3)nc12 | 16.5
O=[N+]([O-])c1ccc(NC(=S)NCCc2ccc(F)cc2)cc1 | 11.8
COc1cccc(C(c2c(C)[nH]n(-c3ccccc3)c2=O)c2c(C)[nH]n(-c3ccccc3)c2=O)c1OC | 13.9
CCC1CCCCN1CCCNC(=O)CCCOc1cc(=O)n(C)c2ccccc12 (configuration not stated) | 18.9
Cc1cnc([N+](=O)[O-])n1CCOC(=O)NC(=O)c1cccc(F)c1 | 13.8
CC(=O)c1ccc(-c2ccc(C(=O)NC3CCCCCC3)o2)cc1 | 11.4
Cc1ccc(C(=O)NNC(=S)NC(=O)c2ccco2)cc1 | 5.1
COc1c(C)cc(C(=O)C2CCCN(C(=O)c3ccc4[nH]ccc4c3)C2)cc1C (configuration not stated) | 18.3
CCc1cccc2c(C(=O)COC(=O)C3=NNC(=O)CC3)c[nH]c12 | 14.4
CN(CCc1cnn(C)c1)Cc1cn(C)nc1-c1ccccc1F | 6.3
Fc1ccccc1CNC(=S)Nc1ccc(Cl)cc1 | 3.1
CN(Cc1ccccc1)C(=O)CCc1ccccc1 | 13.5
Cc1ccc(CC(=O)O/N=C(\N)c2cccc([N+](=O)[O-])c2)cc1 | -10.9
Cc1nc(SCc2ccc(Cl)cc2)ncc1C(=O)O | 27.8
O=C(CNC(=O)c1cccc(F)c1)OCc1cc(=O)n2cc(Br)ccc2n1 | 14.6
Clc1ccc(-n2nnnc2CN2CCOCC2)cc1Cl | 11.5
CCn1c(=O)c(C(=O)Nc2ccccn2)c(O)c2ccccc21 | -16.6
CSCCC(NS(=O)(=O)c1ccc(Cl)cc1)C(=O)OCc1c(Cl)cccc1Cl (configuration not stated) | 10.9
O=C(Cc1ccc(Cl)cc1)NN1C(=O)c2ccccc2C1=O | 5.6
CCN(CC)S(=O)(=O)c1ccc(N2CCOCC2)c(NC(=O)c2ccc(NC(C)=O)cc2)c1 | 17.5
CCNC(=S)Nc1cc(Cl)ccc1Oc1ccccc1 | 3.9
CCN1CCN(C(c2nnnn2Cc2ccc3c(c2)OCO3)C(C)C)CC1 (configuration not stated) | 11.0
COc1ccc2[nH]c(O)c(N=NC(=O)Cc3cccs3)c2c1 | 9.0
COc1ccc(Nc2nc(NCC3CCCO3)nc(N)c2[N+](=O)[O-])cc1 (configuration not stated) | 16.9
O=C(NCCCCNC(=O)C(F)(F)F)C(F)(F)F | 20.2
CCN(CC)CC(=O)N1CCCC(C(=O)c2ccccc2OC)C1 (configuration not stated) | 0.6
O=C1NC(=Nc2ccc(F)cc2)SC1Cc1ccc(F)cc1 (configuration not stated) | 7.8
COc1ccc(OC)c(Cc2nnc(CCC(=O)N3CCCCC3)o2)c1 | 8.0
O=[N+]([O-])c1ccccc1CNC1CCCCCC1 | -4.8
CCN(c1ccccc1)c1nc(C#N)nc(N(CC)c2ccccc2)n1 | 24.4
CC1(c2nnc(-c3ccccc3)o2)CC(c2cccc(Cl)c2)=NO1 (configuration not stated) | 10.9
CCOc1cc(/C=N/N=C(N)N)ccc1OCc1ccc(Cl)cc1 | 11.7
CCOC(=O)CSc1nc2ccccc2c(=O)n1CC(C)C | 7.8

An excerpt of these results, with tabs:
molecule	Calb biofilm kill
Cc1nn(CC(=O)NCc2cc3ccccc3[nH]2)c(C)c1[N+](=O)[O-]	8.8
COc1ccc(OC)c(Nc2nc3ccccc3n3cnnc23)c1	29.3
CC(C)N(Cc1nc(-c2ccc3c(c2)OCO3)no1)CC1CCC(=O)N1 (configuration not stated)	29.8

Going on with the list.
SMILES | Calb biofilm kill
Cc1c(/C=N/NC(=O)c2cccs2)c2ccccc2n1Cc1ccccc1Cl | 13.2
O=C(NCCCN1CCOCC1)c1sc2cc([N+](=O)[O-])ccc2c1Cl | 17.5
Cc1cccc(OCCC(=O)Nc2cc(S(=O)(=O)N3CCCCC3)ccc2N2CCOCC2)c1 | 5.8
Cc1ccccc1Nc1c(-c2ccncc2)nc2ccc(Br)cn12 | 15.5
CC(NC(N)=O)C(=O)Nc1ccc(Cl)c(S(=O)(=O)Nc2ccc(Cl)cc2)c1 (configuration not stated) | 13.7
O=C(Cc1n[nH]c(=O)[nH]c1=O)N/N=C/CCc1ccccc1 | 10.6
Cc1cc2nc(C)c(Cl)c(=O)n2[nH]1 | -16.7
[O-]/C(=C(\C(=S)NCc1ccccc1)[n+]1ccccc1)c1ccc(Cl)s1 | 9.1
O=C(COC(=O)c1ccc2c(c1)S(=O)(=O)N=C1CCCCCN12)NCCc1ccc(F)cc1 | 5.9
O=C(/C=C/c1ccccc1)NC(NC(=S)Nc1cccc(O)c1)C(Cl)(Cl)Cl (configuration not stated) | 9.9
CCN(CC)CC(=O)Nc1ccc(Oc2ccc(NC(=O)CN(CC)CC)cc2)cc1 | 15.9
O=c1[nH]c(/C=C/c2ccccc2[N+](=O)[O-])nc2ccccc12 | -0.1
CN(C)c1ccc(/C=C/C(=O)c2c(O)c3ccccc3oc2=O)cc1 | 11.6
O=C(O)c1cccnc1SC1CC(=O)N(c2ccc(OC(F)F)cc2)C1=O (configuration not stated) | 27.0
CC(=O)c1ccc(NC(=O)NCc2ccc(F)cc2)cc1 | 12.1
COc1cccc(C(=O)Nc2ccccc2OC(F)(F)F)c1 | 8.1
COc1ccc(NC(=O)c2nc(SC)ncc2Cl)cc1 | 11.4
CN(C)C(CNC(=O)/C=C/c1cccc(Cl)c1)c1ccccc1 (configuration not stated) | 5.8
Cc1ccsc1C(=O)N1CCC(N2CCC(C(=O)NCC3CCCO3)CC2)CC1 (configuration not stated) | 9.3
Cc1ccc(CSCc2nc3ccccc3[nH]2)cc1 | 6.5
COc1ccc(C2CC(c3cccs3)=NN2C(=O)CSc2nnc(N)s2)cc1OC (configuration not stated) | 2.0
C#CCOCCOCCOCCNc1nc(N2CCN(C(=O)[C@H](CCC(=O)O)n3cc(C(N)CC(C)C)nn3)CC2)nc(N2CCN(C(=O)[C@H](Cc3ccc(O)cc3)n3cc(C(N)CC(C)C)nn3)CC2)n1 (some centres not stated) | 14.5
N=C1/C(=C\c2coc3ccccc3c2=O)C(=O)N=C2SC(c3ccncc3)=NN12 | 6.8
O=C(O)COc1ccccc1/C=N/NC(=O)CSc1nnc(-c2ccc(Cl)cc2)n1C1CCCCC1 | 10.6
O=C(OCc1cc2ccccc2[nH]c1=O)c1cccs1 | 12.8
O=C(NN1C(=O)C2CCCCC2C1=O)c1ccco1 (configuration not stated) | 8.3
Cc1nc2ccc(S(=O)(=O)NCC(=O)NC(C)c3ccccc3)cc2s1 (configuration not stated) | 14.2
S=C(NCc1ccco1)N1CCN(c2ccc(Cl)cc2)CC1 | 10.3
O=C(Nc1cccnc1)C12CC3CC(CC(C3)C1)C2 | 17.7
NNC(=O)COc1ccccc1F | 16.4
CCC12CN3CCN(CC(C3)/C1=N\NC(=O)c1ccc(F)cc1)C2 | 19.2
COc1cc2c(ccc3cc(OC)c(OC)c(O)c32)cc1O | 12.9
CCc1cccc2c3c([nH]c12)C(CC)(CC(=O)O)OCC3 (configuration not stated) | 8.3
COCCCNC(=S)N1CCC(NC(=O)c2ccco2)CC1 | 4.6
O=C(/C=C/c1ccccc1)NCc1cccnc1 | 20.6
N#C/C(=C/c1ccc(N2CCOCC2)o1)c1nc2ccccc2[nH]1 | 13.1
COc1ccc(C(=O)NN2C(=O)C3C(c4ccccc4)C=CC(c4ccccc4)C3C2=O)cc1 (configuration not stated) | 16.7
COc1ccc(NC(=O)c2nc3ccccc3s2)cc1 | 10.6
Cc1cc(C)c2nc(C)cc(Nc3ccc(C(=O)N4CCOCC4)cc3)c2c1 | 11.8
O=C(Nc1ccc(OCC(=O)N2CCOCC2)cc1)Nc1cccc(Cl)c1 | 9.9
COc1ccc(CCNC(=O)[C@@H](NC(=O)c2ccccc2F)C(C)C)cc1OC | 0.3
Cc1ccccc1COC[C@H](CC(C)C)N1CCN(C(=O)c2cccc(C(F)(F)F)c2)CCC1=O | 22.7
Nc1nc(SCC(=O)Nc2ccccc2C(F)(F)F)[nH]c(=O)c1-c1ccccc1 | 9.8
O=C(NCCN1CCOCC1)C(=O)NCC1CCCO1 (configuration not stated) | 14.3
COc1cccc(-n2c(-c3cccc(S(=O)(=O)N(C)C)c3)n[nH]c2=S)c1 | 10.9
O=C(CNc1cc(S(=O)(=O)N2CCOCC2)ccc1N1CCCC1)NCc1ccco1 | -2.6
Cc1cccc(N2CCN(C(=O)NCc3ccc(Cl)cc3)CC2)c1 | 7.0
COc1c(Cl)cc(C(=O)NN)cc1Cl | 19.8
c1ccc(CNc2ccc(CNc3ncn[nH]3)cc2)cc1 | 16.1
Cc1ccc(C(=O)/C=C/Nc2cccc([N+](=O)[O-])c2)o1 | 8.8
Cc1onc(CO)c1C(=O)Nc1nccs1 | 12.6
Cc1c(/C=N/NC(=O)c2cccnc2)c2ccccn2c1C(=O)c1ccc(F)cc1 | 4.6
CC(=O)c1ccc(N2CCN(C(=O)Nc3ccc(F)cc3)CC2)cc1 | 0.4
CCCN1C(=O)C(Cc2nc3ccccc3c(=O)n2-c2ccccc2)c2ccccc21 (configuration not stated) | -2.3
CCCCOc1ccc(N2CC(C(=O)NCCc3ccc(OC)c(OC)c3)CC2=O)cc1 (configuration not stated) | 9.2
CCOC(=O)C(C(=O)OCC)C(C[N+](=O)[O-])c1ccccc1 (configuration not stated) | 6.7
N#CNC(=Nc1cccc(F)c1)SCc1ccccc1 | 0.5
O=C(O)Cc1ccc(C(=O)CSc2ccccc2)s1 | 23.0
O=C(Nc1ccc(S(=O)(=O)Nc2nccs2)cc1)c1ccc(F)c(S(=O)(=O)N2CCOCC2)c1 | 13.2
COC(=O)c1ccsc1NC(=O)CN1C(=O)CCC1=O | -0.3
Later entries.
SMILES | Calb biofilm kill
O=C(O)CSCC(=O)Nc1ccc(Cl)cc1C(F)(F)F | 21.2
COc1ccc2c(C(=O)CN3CCSCC3)c[nH]c2c1 | -1.5
O=CNC(n1cnc2c(N3CCOCC3)ncnc21)C(Cl)(Cl)Cl (configuration not stated) | 15.7
Cc1cc(OCC(=O)c2ccc(C(F)(F)F)cc2)n2cnnc2n1 | 15.1
CCc1cc2c(SCC(=O)Nc3cc(C)on3)ncnc2s1 | 30.9

Look-ups from above:
Result of `COc1ccc2c(C(=O)CN3CCSCC3)c[nH]c2c1` in Calb biofilm kill: -1.5
Result of `Cc1ccc(CC(=O)Nc2ccccc2-c2ccccc2)cc1C` in Calb biofilm kill: 4.9
Result of `Cc1cc(OCC(=O)c2ccc(C(F)(F)F)cc2)n2cnnc2n1` in Calb biofilm kill: 15.1
Result of `O=CNC(n1cnc2c(N3CCOCC3)ncnc21)C(Cl)(Cl)Cl` (configuration not stated) in Calb biofilm kill: 15.7
Result of `CCC12CN3CCN(CC(C3)/C1=N\NC(=O)c1ccc(F)cc1)C2` in Calb biofilm kill: 19.2
Result of `COCCCNC(=S)N1CCC(NC(=O)c2ccco2)CC1` in Calb biofilm kill: 4.6
Result of `CCc1cccc2c(C(=O)COC(=O)C3=NNC(=O)CC3)c[nH]c12` in Calb biofilm kill: 14.4

Some of the compounds tested (hit frequency here may not be typical).
